From PubChem
AmpC inh no det – Promiscuous and Specific Inhibitors of AmpC Beta-Lactamase (assay without detergent) | P00811 | AmpC nitrocefin hydrolysis, absorbance 480 nm, no detergent; potencies from a single point are estimates | Potency, µM (series often up to 28.7 µM), without a hit: at the top dose activity change, negative = inhibition | 1.8% of 71,000 active | AID 585, 2007; active = falling curve, for most hits resting on a single point; inconclusive = weak or doubtful change; inactive = flat or rising curve; further: % of control where 0% means no effect; about half of the hits show no inhibition at the top dose; a quarter of the inactives give rising signals
Target sequence (P00811 whole entry, looked up): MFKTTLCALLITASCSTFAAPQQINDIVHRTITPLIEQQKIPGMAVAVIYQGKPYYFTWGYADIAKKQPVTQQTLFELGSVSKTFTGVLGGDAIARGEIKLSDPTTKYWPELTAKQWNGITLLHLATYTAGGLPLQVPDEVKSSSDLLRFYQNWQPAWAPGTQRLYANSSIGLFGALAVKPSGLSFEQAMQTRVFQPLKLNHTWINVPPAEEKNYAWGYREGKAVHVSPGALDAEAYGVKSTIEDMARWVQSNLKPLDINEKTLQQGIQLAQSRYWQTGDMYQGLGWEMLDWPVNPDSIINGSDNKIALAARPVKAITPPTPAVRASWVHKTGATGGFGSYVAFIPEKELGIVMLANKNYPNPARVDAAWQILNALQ
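AmpC, 20 mM phosphate pH 7.0; 15 min cpd preinc, RT; start with nitrocefin (800 uM stock); A480 kinetic read, 20 s intervals, 4 min. No-enzyme wells = negative control.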
Starred values were filed as active, the others as inactive; ? = inconclusive; & = joins results of further samples; [ ] = remark or other dose. Potency means the concentration at half of the fitted maximal effect. Only part of the results is shown; rates above refer to the full screens.

SMILES	AmpC inh no det
COC(=O)Nc1ccc(S(=O)(=O)N2c3ccccc3CCC2C)cc1 (centres undefined)	-8%
Cc1cc(-c2nnc3n2N=C(c2ccc(-c4ccccc4)cc2)CS3)n[nH]1	20%
COc1ccccc1-c1n[nH]c(=S)o1	-2%
CC(C)COc1ccc(C(=O)N(Cc2ccco2)C2CCS(=O)(=O)C2)cc1 (centres undefined)	90%
O=C1c2ccccc2C(=O)C1c1ccccc1	-6%[12.8 µM]
c1ccc(-c2cnc(CSc3nnc4ccccn34)o2)cc1	-11%
Cc1c(C(=O)Nc2ccc(Cl)cn2)oc2ccccc12	-15%
O=C(NC1CCCC1)c1cccc(S(=O)(=O)N2CCCCC2)c1	-6%
Cc1ccc(-c2nc(C(=O)NC3CCCCCC3)no2)cc1	20%
O=S1(=O)CC2(N3CCOCC3)CCCCCCC21 (centres undefined)	-11%
O=C(O)c1cc2nc(-c3ccccc3)cc(C(F)(F)F)n2n1	-9%
COc1cccc(C(=O)N2CCN(CCCc3ccccc3)CC2)c1OC	76%
c1ccc2c(c1)CCCc1cc(NCCN3CCOCC3)nnc1-2	-4%[12.8 µM]
CCS(=O)(=O)N1CCN(C(=O)CCC2CCCC2)CC1	13%
COc1ccc(-n2c3c(cc(C(=O)Nc4ccc5c(c4)C(=O)NC5=O)c2=O)C(=O)CCC3)cc1	-4%
O=C(Nc1cccnc1)C(Cc1ccccc1)n1cccc1 (centres undefined)	27%
O=C(Cl)c1ccc([N+](=O)[O-])cc1	-5%
O=C(COc1ccccc1)NCCn1ccc2ccccc21	14%
COc1ccc(CCNC(=O)C2CCN(Cc3nc(-c4ccccc4F)oc3C)CC2)cc1OC	111%
O=C(NCc1cccs1)C1CCN(S(=O)(=O)N2CCCC2)CC1	2%
Cc1cc(Cl)ccc1OCCCC(=O)N1CCOCC1	71%
CCOC(=O)NC(=O)CSc1nnnn1-c1ccccc1	3%
O=C(c1cnn2c(C(F)F)cc(-c3ccccc3)nc12)N1CCOCC1	27%
O=c1nc(-c2ccccc2)c2ccccc2[nH]1	0%
c1ccc2sc(SSc3nc4ccccc4s3)nc2c1	-10%
(list continues)
SMILES	AmpC inh no det
CCOc1ccc(Nc2nc(NCCN3CCOCC3)nc(OC)n2)cc1	37%
COc1cc(C(=O)N2CCCC(c3nc(-c4cccs4)no3)C2)cc(OC)c1OC (centres undefined)	78%
Cc1ccc(CN2CC34C=CC(O3)C(C(=O)NCc3ccco3)C4C2=O)cc1 (centres undefined)	95%
Cn1ccnc1SCc1cn2ccccc2n1	0%
CC1CN(S(=O)(=O)c2ccc(Cl)c(S(=O)(=O)N3CC(C)OC(C)C3)c2)CC(C)O1 (centres undefined)	-1%
Cc1noc(C)c1CSc1nnc2c(C)cc3ccccc3n12	32%
CCOC(=O)COC(=O)c1ccc(O)cc1	6%
Cc1nc(Nc2ccc3c(c2)OCCO3)c2oc3ccccc3c2n1	44%
CCC(c1nnnn1C(C)(C)C)N1CCN(C2CCCC2)CC1 (centres undefined)	-4%
Cc1cccc(-c2nnc(-c3ccccc3)o2)c1	15%
Cc1c(Cl)cccc1Nc1nc(N)nc(CSCCO)n1	5%
COC(=O)CSc1nnc2n(C3CCCCC3)c(=O)c3c4c(sc3n12)CCCC4	118%
CCOc1ccccc1Nc1ccc(N)cc1S(=O)(=O)O	-11%[5.75 µM]
O=C(NC1CCCCC1)N1CCc2ccccc21	0%
Clc1ccccc1OCc1nnc(-c2ccccc2Br)o1	-2%
CCOc1ccc(C(=O)N(CN2CCCC2=O)c2ccccc2)cc1	18%
O=C1CCCCCN1CP(=O)(O)CN1CCOCC1	-6%
CCCN(Cc1cc2cc(C)ccc2[nH]c1=O)S(C)(=O)=O	49%
O=C(Nc1ccccc1)N[C@H]1C[C@H](C(=O)O)Nc2cc(Cl)cc(Cl)c21	9%
Oc1c(-c2cc(-c3ccco3)[nH]n2)ccc2ccccc12	-24%
Nc1ccc2ccccc2c1	-7%
CCN(CC)c1nc2cc(OC)ccc2cc1C#N	-3%
O=C(c1cnccn1)N1CCC2(CC1)CCN(c1ccccn1)CC2	-5%
O=C(C(Cc1ccccc1)n1cccc1)N1CCCCCC1 (centres undefined)	7%
CCCn1c(CNS(=O)(=O)c2ccc(C)cc2)nc2ccccc21	4%
Next compounds
SMILES	AmpC inh no det
O=C(CCNc1n[nH]c(=O)[nH]c1=O)N1CCOCC1	-8%
COc1ccccc1C(=O)NCC(c1cccnc1)N(C)C (centres undefined)	-2%
Cc1ccc(-c2nnn(CC(=O)N(CC(=O)NCC3CCCO3)c3ccc(F)c(Cl)c3)n2)o1 (centres undefined)	115%
Cc1ccc(-n2c(Cc3cccs3)nnc2SCC(=O)Nc2ccc(S(N)(=O)=O)cc2)cc1	11%
O=C(O)c1oc(C(=O)O)c(C(=O)O)c1C(=O)O	6%[5.75 µM]
O=C(Nc1nncs1)c1ccc(Br)c(S(=O)(=O)N2CCCC2)c1	-19%
COc1ccc2cc(C#N)c(NC(C)C)nc2c1	-3%
CCn1c(SCC(=O)Nc2nc3ccccc3s2)nnc1-c1ccc(OC)cc1	2%
CCOC(=O)N1CCN(S(=O)(=O)c2ccc(OCC)c3ccccc23)CC1	110%
O=C(COC(=O)c1cccc(S(=O)(=O)N2CCN(c3ccccc3)CC2)c1)NCc1ccco1	2%
O=C1CCCCCN1Sc1ccccc1	-7%
COc1ccc(/C=N/n2c(=O)[nH]c3c([nH]c4ccc(C)cc43)c2=O)cc1CN1CCOCC1	93%
COc1ccc(NC(=O)C2CCCN(S(=O)(=O)c3cnc[nH]3)C2)cc1 (centres undefined)	-8%
OC(COc1ccc2cc(Br)ccc2c1)CN1CCCC1 (centres undefined)	24%
O=C(COc1ccccc1O)Nc1ccc(Cl)cc1	-12%
CNc1nc2c(c(=O)n(C)c(=O)n2C)n1Cc1ccccc1	-3%
COc1ccc(CNC(=O)c2cc(-c3cccc(OC)c3)on2)cc1	-9%
CCNc1ccc(P(=S)(N(C)C)N(C)C)cc1	9%
C=CCn1c(SCC(=O)Nc2cc(NC(C)=O)ccc2OC)nnc1-c1ccccn1	22%
CCOC(=O)CCC(=O)N1CCNC(=O)C1	7%
CCOC(=O)c1c(NC(=O)CSc2nnc(-c3ccc(OC)cc3)o2)sc2c1CCC2	14%
C=CCn1c(COc2ccccc2F)nnc1SCC(=O)NC(=O)NCc1ccco1	-1%
Cc1cc(CN2C(=O)c3ccccc3C2=O)cc(N2CCOCC2)c1	93%
COCCn1nnnc1C(c1ccccc1)N1CCN(Cc2ccc3c(c2)OCO3)CC1 (centres undefined)	66%
O=C(CSc1ncn[nH]1)NC1CC2CCC1C2 (centres undefined)	1%
(listing goes on)
SMILES	AmpC inh no det
C=CCNC(=O)C1CCN(S(=O)(=O)CC)CC1	-8%
N#Cc1cc2sc3nnc(-c4ccncc4)n3c2cc1C#N	-5%
CC1(C)Oc2ccc3ccc(=O)oc3c2/C(=C/N)C1=O	3%
COC(=O)[C@H](Cc1ccccc1)NC(=O)NCc1ccc(S(N)(=O)=O)cc1	5%
CC(=O)N(CC(=O)O)c1ccccc1C(=O)O	-7%
CCc1nc(SCC(=O)c2ccc(C)c(C)c2)n[nH]1	-7%
CCN(CC)c1nc(N)nc(NS(=O)(=O)c2ccc(Cl)cc2)n1	-21%
CCOCCCNC(=O)Cn1cc2c(n1)CCCC2	21%
Cc1ccc(Cl)c(Nc2ccccc2C(=O)O)c1Cl	?
CSc1ccc(Cl)c(C(=O)OCC(=O)NCc2ccco2)c1	0%
O=C(CN1CCN(c2ccc(F)cc2)CC1)N1CCOCC1	6%
O=C(NCc1cccnc1)c1nnc(Cc2ccc(F)cc2)o1	-1%
CCOC(=O)c1sc(NC(=O)CSc2nnnn2-c2ccccc2)nc1C	9%
CC1CCCCN1S(=O)(=O)c1ccc(C(=O)Nc2nnc(-c3cccs3)o2)cc1 (centres undefined)	?
Nn1cc(-c2ccccc2)nc1SCC(=O)N1CCN(S(=O)(=O)c2ccc(Cl)cc2)CC1	119%
Cc1nc(NCC2CCCO2)nc2c1C(=O)CC(C)C2 (centres undefined)	11%
NC(=O)c1ccsc1NC(=O)CSc1ccccc1F	-22%
CC(C)CC(=O)N[C@H](C(=O)N[C@H](C(=O)N[C@@H](CC(C)C)[C@H](O)CC(=O)N[C@@H](C)C(=O)N[C@@H](CC(C)C)[C@H](O)CC(=O)O)C(C)C)C(C)C	6%[12.8 µM]
Cc1ccccc1-c1ccc2ncnc(N3CCOCC3)c2c1	129%
COc1ccccc1NC(=O)c1[nH]c(C)c(C(C)=O)c1C	3%
CC1(C)CC(n2c(NCCO)nc3c(c2=O)C2(CCCC2)Cc2ccccc2-3)CCO1 (centres undefined)	135%
CNS(=O)(=O)c1cc(O)c2c(S(=O)(=O)NC)cccc2c1	-18%
Cc1occc1-c1nnc(SCC(=O)N2CCN(c3ccccc3F)CC2)n1C	39%
O=C1C(Cl)=C(N2CCCCCC2)C(=O)N1c1ccccc1	-9%
CC(C)NS(=O)(=O)c1cccc2nsnc12	2%
The list goes on.
SMILES	AmpC inh no det
C=CCn1c(C)cc(C(=O)CSc2nc3ccccc3o2)c1C	0%
CNC(=O)CN(c1ccc(OC)cc1)S(=O)(=O)c1ccc(F)cc1	19%
Cc1ccc(-c2cc(C(=O)NCc3ccc4c(c3)OCO4)no2)cc1	-11%
COc1ccc(S(=O)(=O)N(C)CC(=O)Nc2ccccc2SC)cc1Cl	22%
COc1ccc2cc(C(c3nnnn3C(C)(C)C)N3CCSCC3)c(=O)[nH]c2c1 (centres undefined)	44%
C[C@@H](NC(=O)C1(N)CCCC1)C(=O)O	4%[5.75 µM]
O=C(NCc1ccco1)c1nc2nc(-c3cccs3)cc(C(F)(F)F)n2n1	-7%
Cc1ccc(NC(=O)Cn2c(=O)n(Cc3ccco3)c(=N)c3c4c(sc32)COC(C)(C)C4)cc1	106%
CN(Cc1ccco1)c1cc(-c2cccc(NS(C)(=O)=O)c2)ncn1	26%
CCCSC(=O)Cl	-7%
Cc1ccc(S(=O)(=O)NC2CCCCC2)cc1	8%
COc1ccc(Cn2c(=O)oc3ccc(C)cc32)cc1OC	27%
Cc1ccc(C)c(NC2=CC(=O)CC(C)(C)C2)c1C#N	-6%
CCC(CC)C(=O)NCCc1cc2c(C)ccc(C)c2[nH]c1=O	-2%
O=C(O)CSCc1cccc2ccccc12	6%[5.75 µM]
CCc1nc2oc3ccccc3c(=O)c2c(=O)n1Cc1ccc(OC)cc1	28%
CCn1c(COc2ccccc2C)nnc1SCC(=O)N1CCC(C)CC1	113%
Cc1cc(N(C)Cc2ccccc2)nc(-c2ccccc2)n1	33%
CC12CCC(C(=O)N(c3ccccn3)c3ccccn3)(OC1=O)C2(C)C (centres undefined)	8%
COC(=O)C1C(=O)C2=C(CC1C)NC(=O)CC2c1cccc(C)c1 (centres undefined)	2%
COc1cccc(-c2nc(CS(=O)CC(=O)NC3CCCC3)c(C)o2)c1 (centres undefined)	4µM*[single pt active]
CCc1ccc(-c2nnn(Cc3nc4ccccc4s3)n2)cc1	-12%
Cc1cccc(C)c1NC(=O)N1CCN(C2CCCCC2)CC1	-5%
Cc1c(-c2nc(N)nc(Nc3ccccc3F)n2)oc2ccccc12	79%
Cn1c(=O)c2ncn(CC(=O)NCCOc3ccc(C(C)(C)C)cc3)c2n(C)c1=O	43%
Next section.
SMILES	AmpC inh no det
COCC(C)NS(=O)(=O)c1ccc(OC)cc1 (centres undefined)	3%
Nn1c(SC/C=C/c2ccccc2)nnc1-c1ccco1	1%
COc1cccc2c1C(=O)c1c(O)c3c(c(O)c1C2=O)C[C@](O)(C(C)=O)C[C@H]3O[C@@H]1C[C@H](N)[C@H](O)[C@H](C)O1	85%[12.8 µM]
CCCOC(=O)C1C2C=CC3(CN(c4ccc(Cl)c(F)c4)C(=O)C13)O2 (centres undefined)	?
CN1CCCC2(CCN(C(=O)c3ccncc3)CC2)C1	145%
COc1ccccc1N1CCN(CCN2C(=O)CC3(CCCC3)CC2=O)CC1	82%&48%
Cc1onc(-c2ccccc2)c1C(=O)Nc1nnc(-c2ccncc2)s1	-9%
O=C(N1CCCCCC1)N1CCN(S(=O)(=O)N2CCOCC2)CC1	-2%
CC1CCCc2sc3nc(NCc4ccco4)n4ncnc4c3c21 (centres undefined)	23%
Cc1cccc(C)c1NC(=O)C1(N(Cc2ccco2)C(=O)CC2NC(=O)NC2=O)CCCCC1 (centres undefined)	25%
O=c1[nH]c2cc3c(cc2cc1C(c1nnnn1Cc1ccccc1)N1CCCc2ccccc21)OCO3 (centres undefined)	3.2µM*
COc1ccc(N(CC(=O)Nc2ccc3c(c2)OCO3)S(=O)(=O)c2c(C)nn(C)c2C)cc1	82%
CCOC(=O)N1CCC(NC(=O)c2cnn3cccnc23)CC1	12%
Cc1ccc2[nH]c3c(c2c1)CN(C(=O)CN1CCN(c2cccc(C)c2C)CC1)CC3	110%
O=S(=O)(O)C1CCNCC1	-10%

In the list so far, these contain fluorine:
SMILES	AmpC inh no det
O=C(O)c1cc2nc(-c3ccccc3)cc(C(F)(F)F)n2n1	-9%
COc1ccc(CCNC(=O)C2CCN(Cc3nc(-c4ccccc4F)oc3C)CC2)cc1OC	111%
O=C(c1cnn2c(C(F)F)cc(-c3ccccc3)nc12)N1CCOCC1	27%
Cc1ccc(-c2nnn(CC(=O)N(CC(=O)NCC3CCCO3)c3ccc(F)c(Cl)c3)n2)o1 (centres undefined)	115%
C=CCn1c(COc2ccccc2F)nnc1SCC(=O)NC(=O)NCc1ccco1	-1%
O=C(CN1CCN(c2ccc(F)cc2)CC1)N1CCOCC1	6%
O=C(NCc1cccnc1)c1nnc(Cc2ccc(F)cc2)o1	-1%
NC(=O)c1ccsc1NC(=O)CSc1ccccc1F	-22%
Cc1occc1-c1nnc(SCC(=O)N2CCN(c3ccccc3F)CC2)n1C	39%
CNC(=O)CN(c1ccc(OC)cc1)S(=O)(=O)c1ccc(F)cc1	19%
O=C(NCc1ccco1)c1nc2nc(-c3cccs3)cc(C(F)(F)F)n2n1	-7%
Cc1c(-c2nc(N)nc(Nc3ccccc3F)n2)oc2ccccc12	79%
CCCOC(=O)C1C2C=CC3(CN(c4ccc(Cl)c(F)c4)C(=O)C13)O2 (centres undefined)	?
